GCN5L2 inh = blocks human GCN5L2 histone acetyltransferase | Q92830 | GCN5L2 HAT assay, ThioGlo1 CoA-SH fluorescence | Potency, µM (highest dose often 58.9 µM), for the others: at the highest dose activity change, negative = inhibition, most hits filed as inhibitors | 390,000 compounds, 0.21% hits; active means well fitted inhibition curve with a large enough effect; inconclusive means small, poorly fitted or top-dose-only effect, or another doubt; inactive means no such curve, though single readings can be large or run the other way
Target sequence (Q92830 whole entry, looked up): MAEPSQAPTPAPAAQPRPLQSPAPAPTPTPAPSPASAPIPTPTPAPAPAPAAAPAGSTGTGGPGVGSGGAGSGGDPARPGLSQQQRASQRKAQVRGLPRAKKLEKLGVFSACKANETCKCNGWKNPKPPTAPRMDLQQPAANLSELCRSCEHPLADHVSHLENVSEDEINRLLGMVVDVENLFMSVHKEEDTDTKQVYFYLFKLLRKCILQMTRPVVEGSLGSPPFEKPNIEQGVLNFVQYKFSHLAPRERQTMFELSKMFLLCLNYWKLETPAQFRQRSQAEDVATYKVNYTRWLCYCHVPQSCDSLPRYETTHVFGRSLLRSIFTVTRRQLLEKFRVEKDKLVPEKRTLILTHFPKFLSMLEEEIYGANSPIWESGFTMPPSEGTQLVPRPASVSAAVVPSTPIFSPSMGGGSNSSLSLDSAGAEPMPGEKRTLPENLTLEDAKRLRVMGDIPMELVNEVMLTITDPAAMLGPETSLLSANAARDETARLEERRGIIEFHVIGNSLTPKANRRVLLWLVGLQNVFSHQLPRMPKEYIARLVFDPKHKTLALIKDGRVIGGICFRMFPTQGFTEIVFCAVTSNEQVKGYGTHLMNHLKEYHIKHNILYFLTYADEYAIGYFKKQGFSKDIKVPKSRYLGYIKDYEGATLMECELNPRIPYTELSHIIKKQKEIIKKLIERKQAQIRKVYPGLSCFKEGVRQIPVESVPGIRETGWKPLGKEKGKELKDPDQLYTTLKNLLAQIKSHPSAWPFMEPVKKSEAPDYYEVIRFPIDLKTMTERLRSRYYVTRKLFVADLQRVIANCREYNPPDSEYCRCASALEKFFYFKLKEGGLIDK
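Enzyme at 20nM final was mixed with library compounds for 15 min at room temperature. Peptide H3(1-25) at 75uM, acetyl-CoA at 70uM and ThioGlo1 at 50uM were then added. Plates were read immediately and after 20 min (Ex340nm/Em540nm).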
An asterisk follows results filed as active; [ ] = remark or other dose. On the % scale 0 is the no-effect control and ±100 the full control effect; potency means the concentration at half of the fitted maximal effect. Not all compounds are listed, and most or all hits are left out here.

Screening COc1ccccc1CNC(=O)CCCCn1c(=O)c2ccccc2n(CC(=O)Nc2c(C)cc(C)cc2C)c1=O returned GCN5L2 inh -2.8%.
Screening CC(=O)c1ccc(S(=O)(=O)Oc2ccc(-c3ccc(C(=O)O)cc3)cc2)cc1 returned GCN5L2 inh 1.3%.
For O=C(Cc1ccccc1)Nc1ccc(C(=O)Nc2ccc(O)cc2)cc1 the results were GCN5L2 inh 3.0%.
For COc1ccc(Cl)cc1-c1nc(SCC(=O)NC2CC2)n[nH]1 the results were GCN5L2 inh -8.5%.
Screening COc1cc2c(cc1O)C(Cc1ccc(O)cc1)NCC2 (centres undefined) returned GCN5L2 inh -2.9%.
`COc1cccc(OC)c1C(=O)Nn1c(C2CCC2)nc2ccccc2c1=O` gave GCN5L2 inh -3.5%.
For O=C(O)CCC(=O)Nc1ccc(-n2ccc(C(F)(F)F)n2)cc1 the results were GCN5L2 inh -16.2%.
`COc1ccc(NC(=O)N(C2CCCCC2)C(C)c2cccnc2)c(OC)c1` (centres undefined) gave GCN5L2 inh -2.6%.
For CCc1ccc(CNC(=O)c2ccc(CS(=O)(=O)Cc3cccc(C)c3)o2)cc1 the results were GCN5L2 inh 10.4%.
C=CCOC(=O)C1=C(C)NC(=O)NC1c1cc(Cl)cc(Cl)c1OC (centres undefined) was read as GCN5L2 inh -8.6%.
For CC(=O)Nc1ccc(NC(=O)CCc2nc3cccnc3n2Cc2cccs2)cc1 the results were GCN5L2 inh -6.3%.
O=C(c1cc(N2C(=O)C3C4CCC(C4)C3C2=O)ccc1Cl)N1CCN(c2ccccc2F)CC1 (centres undefined) was read as GCN5L2 inh -1.4%.
Screening CC(C)(C)c1ccc(S(=O)(=O)NC(Cc2ccccc2)C(=O)O)cc1 (centres undefined) returned GCN5L2 inh -8.8%.
O=C(Cc1ccc(Br)c2ccccc12)N/N=C/c1ccccn1 was read as GCN5L2 inh -2.0%.
`Cc1cccc(NC(=O)/C(C#N)=C\c2cn(CC(=O)O)c3ccccc23)c1` gave GCN5L2 inh -9.1%.
Screening COc1cc(/C=C/CO)cc(OC)c1O[C@@H]1O[C@H](CO)[C@@H](O)[C@H](O)[C@H]1O returned GCN5L2 inh 0.5%.
CCC(C)c1ccc(NC(=O)C/C(C)=N/NC(=O)c2cnccn2)cc1 (centres undefined) was read as GCN5L2 inh -1.6%.
CCOC(=O)C(=O)NCC(c1ccco1)S(=O)(=O)c1cccs1 (centres undefined) was read as GCN5L2 inh -2.0%.
CCOC(=O)C1=C(CS(=O)(=O)c2ccc(F)cc2)NC(=O)NC1c1cc(OC)c(O)c(OC)c1 (centres undefined) was read as GCN5L2 inh -0.4%.
Screening Cc1ccc(Cn2ccc(NC(=O)c3cc(-c4ccc5c(c4)OCO5)on3)n2)cc1 returned GCN5L2 inh -3.8%.

The final 3 compounds of the section above open the next one:
CCOC(=O)C(=O)NCC(c1ccco1)S(=O)(=O)c1cccs1 (centres undefined) was read as GCN5L2 inh -2.0%.
CCOC(=O)C1=C(CS(=O)(=O)c2ccc(F)cc2)NC(=O)NC1c1cc(OC)c(O)c(OC)c1 (centres undefined) was read as GCN5L2 inh -0.4%.
Screening Cc1ccc(Cn2ccc(NC(=O)c3cc(-c4ccc5c(c4)OCO5)on3)n2)cc1 returned GCN5L2 inh -3.8%.
`COc1ccc2c(C)c(CCC(=O)NCc3ccc(OC)c(OC)c3)c(=O)oc2c1` gave GCN5L2 inh -19.7%.
`O=C(Nc1ccccc1)c1nnn(Cc2ccccc2)c1NC(=O)C(F)(F)F` gave GCN5L2 inh 2.5%.
`CCC(Cc1ccccc1)NC(=O)C1CCN(c2nn3c(=O)cc(C)nc3s2)CC1` (centres undefined) gave GCN5L2 inh -1.8%.
Screening O=C(CCn1c(=O)c2ccccc2n(Cc2ccccc2)c1=O)NC1CCN(Cc2ccccc2)CC1 returned GCN5L2 inh -6.3%.
For Cc1ccc2nc(NC(=O)C3CCCN3C(=O)OC(C)(C)C)sc2c1 (centres undefined) the results were GCN5L2 inh -6.9%.
`O=C(C1CCCCC1)N1CCCn2c1nc1ccccc12` gave GCN5L2 inh -27.0%.
For CC(=O)N1N=C(c2cccc(Br)c2)OC12CCCC2 the results were GCN5L2 inh -4.8%.
`Cc1ccc(CS(=O)Cc2ccc(C(=O)N3CCOCC3)o2)cc1` (centres undefined) gave GCN5L2 inh -5.8%.
Nc1c(NCCCN2CCOCC2)c2ccccc2oc1=O was read as GCN5L2 inh -5.2%.
`Cc1nn(C)c(C(=O)NN)c1Cl` gave GCN5L2 inh -3.0%.
Cc1nn(C)c(C)c1NC(=O)CCSc1nc(-c2ccco2)cc(C(F)(F)F)n1 was read as GCN5L2 inh -1.7%.
For C=CCn1c(SCC(=O)Nc2sccc2C(N)=O)nc2ccccc2c1=O the results were GCN5L2 inh -1.8%.
For COc1ccc(CC(=O)Nc2cc(-c3cn4cccnc4n3)ccc2C)cc1OC the results were GCN5L2 inh -12.7%.
Screening COc1ccc(CN2CCCC(C(=O)Nc3cccc(-n4cccn4)c3)C2)c(F)c1 (centres undefined) returned GCN5L2 inh -6.3%.
`CCN(CCn1cccn1)Cc1nc(-c2ccc(C(=O)OC)cc2)no1` gave GCN5L2 inh -1.7%.
Screening O=C(NCc1ccco1)NCC(F)(F)F returned GCN5L2 inh -1.0%.
For COc1ccc(N(C(=O)Cn2nnc3ccccc32)C(C(=O)NC(C)(C)C)c2ccc(OC)c(O)c2)cc1 (centres undefined) the results were GCN5L2 inh -14.8%.
CC(C)CCN1CCN(Cc2ccsc2)CC1CCO (centres undefined) was read as GCN5L2 inh -4.8%.
`C/C(=N\NC(N)=S)c1ccccc1` gave GCN5L2 inh -0.8%.
`Cc1nc2ccccc2cc1OCc1ccc(Cl)cc1` gave GCN5L2 inh 0.8%.

The closing two entries of the part before lead into the next.
`C/C(=N\NC(N)=S)c1ccccc1` gave GCN5L2 inh -0.8%.
`Cc1nc2ccccc2cc1OCc1ccc(Cl)cc1` gave GCN5L2 inh 0.8%.
Screening O=C(Nc1ccc(Oc2cccnc2)cc1)C1CCN(Cc2ccccc2)CC1 returned GCN5L2 inh -1.6%.
Screening O=C(COC(=O)[C@H](Cc1ccccc1)NC(=O)c1ccco1)Nc1ccccc1OC(F)F returned GCN5L2 inh -5.0%.
Cc1cc(C)cc(N(CC(=O)NCc2ccc3c(c2)OCO3)C(=O)CCC(=O)Nc2ccccn2)c1 was read as GCN5L2 inh -5.4%.
For Cc1cc(Nc2ccc(C)c(Cl)c2)n2nc(-c3ccccc3)nc2n1 the results were GCN5L2 inh 2.1%.
`COc1ccccc1NC(=O)Cn1c(C)nc2c(sc(=S)n2Cc2ccco2)c1=O` gave GCN5L2 inh -0.9%.
`CCOc1cc(C(=O)Nc2cnccn2)cc(OCC)c1OCC` gave GCN5L2 inh -4.5%.
For COc1ccc(Cl)cc1NC(=O)CS(=O)(=O)c1cccc2nsnc12 the results were GCN5L2 inh -1.6%.
O=[N+]([O-])c1cccc(-n2nnnc2CN2CCCC2)c1 was read as GCN5L2 inh -3.3%.
`Cc1cccc(-c2noc(-c3ccc4c(c3)OCO4)n2)c1` gave GCN5L2 inh 2.8%.
Cc1cc(C)n2nc(N)c(N=Nc3ccc(Cl)cc3)c2n1 was read as GCN5L2 inh -4.2%.
`O=S(=O)(Nc1cccc(S(=O)(=O)N2CCCC2)c1)c1cccc(Br)c1` gave GCN5L2 inh -5.4%.
For CCOc1ccccc1-n1nnnc1SCC(=O)NC(=O)Nc1ccc2c(c1)OCCO2 the results were GCN5L2 inh -5.4%.
`Cc1cccc(NC(=O)CCS(=O)(=O)c2cc(Br)cc3c2N(C(=O)C2CC2)CC3)c1` gave GCN5L2 inh 10.8%.
Screening O=C(NCc1ccco1)c1cc(-c2cccnc2)nc2ccccc12 returned GCN5L2 inh 10.8%.
CC(C)Oc1ccc(CNC(=O)c2ccc(CS(=O)Cc3ccccc3Cl)o2)cc1 (centres undefined) was read as GCN5L2 inh -7.0%.
`CCc1nn(CC(=O)NCCCc2ccccc2)c(=O)c2cc3ccccc3n12` gave GCN5L2 inh -4.0%.
O=C(NCC1CCCO1)C1CC(=O)N(c2ccc(Cl)cc2)C1 (centres undefined) was read as GCN5L2 inh -4.5%.
`O=C(CCc1ccccc1)Nc1ccnn1C1CCN(Cc2ncc[nH]2)CC1` gave GCN5L2 inh -10.9%.
COC(=O)c1ccc(C)c(NC(=O)c2ccc(CN3CCc4ccccc4C3)cc2)c1 was read as GCN5L2 inh -5.1%.
`Cn1c(C(=O)N2CCCC(C(=O)NCCN3CCOCC3)C2)cc2sccc21` (centres undefined) gave GCN5L2 inh -3.5%[0.501 µM].
Screening Cc1sc2nc(C(C)C)nc(SCC(=O)NCc3ccco3)c2c1C returned GCN5L2 inh -6.7%.
O=C(COc1ccccc1F)N1CCc2ccccc2C1 was read as GCN5L2 inh -2.5%.
O=C(NCCCN1CCCC1=O)c1ccc(Cl)c(Cl)c1 was read as GCN5L2 inh -8.9%.
For Cc1cccc(-c2nc(Cn3c(SCc4cc(C)ccc4C)nc4ccncc43)c(C)o2)c1 the results were GCN5L2 inh -5.9%.
`CC1CCN(CCCn2c(SCC(=O)Nc3ccccc3Cl)nc3ccccc3c2=O)CC1` gave GCN5L2 inh -3.2%.
`COc1cccc(-n2nnc3c(=O)n(CC(=O)Nc4cc(C)on4)cnc32)c1` gave GCN5L2 inh -0.8%.
For Oc1ccc2nc(Cc3ccccc3)[nH]c2c1 the results were GCN5L2 inh -4.8%.
Cc1cc(NC(=O)CSc2nnnn2-c2ccc(C)c(C)c2)no1 was read as GCN5L2 inh -1.0%.
Screening Cn1c(=O)c2c(nc(CN3CCN(c4ccc(F)cc4)CC3)n2CCN2CCOCC2)n(C)c1=O returned GCN5L2 inh -7.6%.
COc1cccc(C2=NOC(C(=O)N3CCOCC3)C2)c1 (centres undefined) was read as GCN5L2 inh -6.6%.
CCc1nc2nc(C)cc(Nc3cc(Cl)ccc3C)n2n1 was read as GCN5L2 inh -8.9%.
For Cc1cccc(NC(=O)Cn2c(=O)oc3cc(S(=O)(=O)N4CCCCCC4)ccc32)c1 the results were GCN5L2 inh -19.6%.
Screening C/C(Cn1nnc2ccccc21)=N\NC(=O)c1ccc(Br)cc1 returned GCN5L2 inh -7.5%.
Screening O=C(CCN1C(=O)/C(=C\c2ccccc2)SC1=S)NNC(=O)c1ccncc1 returned GCN5L2 inh -3.6%.
O=C1C(=O)N(CCOCCO)C(c2ccccn2)/C1=C(\O)c1ccccc1 (centres undefined) was read as GCN5L2 inh -13.0%.
For O=C(Cc1c(F)cccc1Cl)OCN1C(=O)c2ccccc2C1=O the results were GCN5L2 inh -4.5%.
O=C(COc1ccc(S(=O)(=O)NCc2ccccc2)cc1)NCc1cccnc1 was read as GCN5L2 inh -4.4%.
`CCCN(C(=O)CSc1ncnc2sccc12)c1c(N)n(Cc2ccccc2)c(=O)[nH]c1=O` gave GCN5L2 inh -4.3%.
`O=S(=O)(NCC(c1cccs1)S(=O)(=O)c1ccccc1)c1ccc(F)c(C(F)(F)F)c1` (centres undefined) gave GCN5L2 inh -5.0%.
Screening CC(C)(CNC(=O)c1ccc(Br)o1)N1CCOCC1 returned GCN5L2 inh -10.7%.

Of the compounds above, 4 contain a COOH group.
Screening CC(=O)c1ccc(S(=O)(=O)Oc2ccc(-c3ccc(C(=O)O)cc3)cc2)cc1 returned GCN5L2 inh 1.3%.
For O=C(O)CCC(=O)Nc1ccc(-n2ccc(C(F)(F)F)n2)cc1 the results were GCN5L2 inh -16.2%.
Screening CC(C)(C)c1ccc(S(=O)(=O)NC(Cc2ccccc2)C(=O)O)cc1 (centres undefined) returned GCN5L2 inh -8.8%.
`Cc1cccc(NC(=O)/C(C#N)=C\c2cn(CC(=O)O)c3ccccc23)c1` gave GCN5L2 inh -9.1%.

Other entries follow:
For CCN(CC)C(=O)C1CCN(C(=O)c2oc3ccc(C)cc3c2C)CC1 the results were GCN5L2 inh -4.5%.
Screening CC1CCN(c2ccc(C(=O)O)cc2)CC1 returned GCN5L2 inh -18.4%.
Cn1c(=O)[nH]c(=O)c2c1nc(N1CCCCC1)n2C/C=N/Nc1ccc(C(=O)O)cc1 was read as GCN5L2 inh -14.9%.
For CC(NS(=O)(=O)c1ccc(Br)cc1)C(=O)NCc1ccc2c(c1)OCO2 (centres undefined) the results were GCN5L2 inh -4.4%.
COc1ccc(CNC(=O)C2CCC(CNS(=O)(=O)c3cccc4cccnc34)CC2)cc1 (centres undefined) was read as GCN5L2 inh inconclusive.
For COc1cc2c(cc1NC(=O)COc1ccc(Cl)cc1)oc1ccccc12 the results were GCN5L2 inh 2.1%.
`Cc1ccc(-c2cc([C@H]3[C@@H]4C=CCC[C@@]4(C)C(=O)N3Cc3ccccc3)ccc2F)cc1` gave GCN5L2 inh -7.6%.
CCOc1nc(-c2ccc(C)cc2)ccc1-c1noc(-c2ccccc2F)n1 was read as GCN5L2 inh -6.3%.
CCc1ccccc1NC(=O)Cn1c(=O)nc(-c2ccccc2)c2ccccc21 was read as GCN5L2 inh 13.2%.
`COc1cc(C2Nc3ccccc3C(=O)N2c2ccc(Cl)cc2)c(Cl)cc1OCC(=O)O` (centres undefined) gave GCN5L2 inh -15.8%.
Screening COc1ccc(NC(=O)CSc2oc(-c3cccs3)nc2S(=O)(=O)c2ccc(C)cc2)c(OC)c1 returned GCN5L2 inh -4.7%.
`Cn1cc(C(=O)N/N=C/C=C/c2ccccc2)ccc1=O` gave GCN5L2 inh 14.8%.
For Cc1ccnc2nc(C(=O)Nc3ccc4c(c3)OCO4)nn12 the results were GCN5L2 inh -3.0%.
Screening CC(C)(C)NCC1(CO)SC(N)=NC1=O (centres undefined) returned GCN5L2 inh -0.9%.
Cc1ccc(/C=C2/C(=N)N3N=C(CC(=O)N4CCCC4)SC3=NC2=O)cc1 was read as GCN5L2 inh -25.8%.
Screening Cc1c(C(=O)Nc2ccc(-c3nnc4n3CCCCC4)cc2)oc2c1ccc1ccccc12 returned GCN5L2 inh -27.1%.
`C=CCn1c(SC(CCO)C(=O)NCc2ccco2)nc2sc3c(c2c1=O)CCC3` (centres undefined) gave GCN5L2 inh -11.8%.
